High-throughput results as filed in PubChem.
KCNQ2 pot: potentiators of rat KCNQ2 potassium channel. O88943. CHO-K1 KCNQ2, FluxOR thallium flux fluorescence; hits give high values. B-score at 10 µM. 310,000 tested, 0.54% active;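 active = fluorescence ratio B-score at least 3 SD of library B-scores, with initial fluorescence B-score within 3 SD, cut at about 5.3 in these data; same plate scores as AID 2156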;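 note: B-score of peak minus minimum over baseline fluorescence ratio after K+ and Tl+ stimulus; positive B-score means potentiation of KCNQ2 with more thallium influx and brighter signal; only the inactives scoring about 0 or higher are listed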
Target sequence (O88943 whole entry, looked up): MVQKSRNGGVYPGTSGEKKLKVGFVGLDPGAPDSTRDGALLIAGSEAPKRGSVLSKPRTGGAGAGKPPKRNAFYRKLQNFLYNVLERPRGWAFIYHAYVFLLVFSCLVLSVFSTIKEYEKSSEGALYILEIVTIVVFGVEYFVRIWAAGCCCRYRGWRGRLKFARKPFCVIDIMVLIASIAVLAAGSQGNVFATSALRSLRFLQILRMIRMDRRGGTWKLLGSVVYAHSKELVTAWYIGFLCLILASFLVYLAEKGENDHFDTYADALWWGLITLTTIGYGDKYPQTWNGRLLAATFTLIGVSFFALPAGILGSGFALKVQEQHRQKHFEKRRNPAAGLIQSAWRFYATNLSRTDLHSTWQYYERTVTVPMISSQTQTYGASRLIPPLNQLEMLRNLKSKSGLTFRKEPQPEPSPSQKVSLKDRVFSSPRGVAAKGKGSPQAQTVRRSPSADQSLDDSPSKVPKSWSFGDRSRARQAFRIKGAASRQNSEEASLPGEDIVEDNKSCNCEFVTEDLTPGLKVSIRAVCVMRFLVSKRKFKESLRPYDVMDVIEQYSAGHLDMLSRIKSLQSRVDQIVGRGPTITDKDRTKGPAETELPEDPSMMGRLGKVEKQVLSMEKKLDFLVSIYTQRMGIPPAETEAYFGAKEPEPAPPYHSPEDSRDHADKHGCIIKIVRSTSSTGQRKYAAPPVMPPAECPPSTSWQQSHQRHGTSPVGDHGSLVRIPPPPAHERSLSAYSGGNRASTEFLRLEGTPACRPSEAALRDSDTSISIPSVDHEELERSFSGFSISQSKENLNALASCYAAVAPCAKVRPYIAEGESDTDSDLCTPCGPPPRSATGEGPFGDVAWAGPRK
KCNQ2 pot baseline: further read-out of KCNQ2 pot, marked with its call; B-score; compound at 10 µM; measured here: initial fluorescence intensity artifact check;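 brightness before thallium and not channel activity; 0 = typical well and far values either way flag optical interference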
An asterisk follows results filed as active. This is a subset; rates above refer to the full screens.

SMILES,KCNQ2 pot,KCNQ2 pot baseline
COc1ccc2cnn(-c3ccc(C)cc3)c(=O)c2c1OC,0.52,-0.6
CCC(=O)/C=C1/Sc2ccccc2N1CC,0.82,-0.01
COc1cc(C2NC(=O)NC(C)=C2C(=O)OC2CCCC(C)C2)cc(Br)c1O (stereo unspecified),4.7,-0.14
Cc1ccc2cc(CCNC(=O)c3ccc(S(=O)(=O)N4CCOCC4)cc3)c(=O)[nH]c2c1C,1.4,-1.6
CCOc1cc(NC(=O)c2ccccc2[N+](=O)[O-])c(OCC)cc1NC(=O)CC(C)C,0.45,-0.66
CC(C)OC(=O)CSc1nnc(CNc2ccc(Cl)cc2)n1C,1.6,0.16
CN(CC(=O)Nc1ccc(F)cc1)C(=O)COc1ccc(C(=O)c2ccccc2)cc1,0.93,-2.5
COc1ccc(CCn2c(=N)c(C(=O)NCCN3CCOCC3)cc3c(=O)n4ccccc4nc32)cc1OC,1.6,1.4
CC(C)(C)c1csc(NC(=O)c2ccncc2)n1,0.08,2
Brc1ccc(COn2ccnc2)cc1,0.24,-0.15
Cc1ccc(Cn2c(CCNc3nc(-c4ccc(Cl)c([N+](=O)[O-])c4)cs3)nc3cc(Cl)c(Cl)cc32)cc1,0.24,-0.2
Cc1cc(C)nc(SCCn2c(N(C)Cc3ccccc3)nc3c2c(=O)n(C)c(=O)n3C)n1,0.76,-1.6
Cc1cc(=O)[nH]c(N/N=C/c2ccco2)n1,0.15,0.19
Cc1ccc(CCC(=O)Nc2cc(Cl)ccc2Cl)o1,1.9,-0.58
CN(C)C(=O)COC(=O)c1cccc(S(=O)(=O)Nc2ccc(OCc3ccccc3)cc2)c1,0.79,-0.38

Other structures follow:
SMILES,KCNQ2 pot,KCNQ2 pot baseline
Cc1nn(C)cc1CNC(=O)C1CCC(=O)N(CC2CCCCC2)C1 (stereo unspecified),0.01,1.7
O=C(O)c1ccccc1NC(=O)c1cc(-c2ccccc2)nc2ccccc12,3.4,-0.49
Cc1[nH]c2ccccc2c1C(=O)CSc1nccc(=O)[nH]1,1.5,0.83
O=C(NCC1CCCN(C(=O)NCc2ccccc2)C1)c1ccc2c(c1)OCO2 (stereo unspecified),0.17,-1.6
COc1ccc(CC(=O)N/N=C(\C)CC(=O)Nc2cccc(F)c2)cc1,2,1.2
Cc1sc2ncnc(OCC(=O)NC(C)C)c2c1C,0.68,0.56
Cc1ccc(-c2csc(N(CCO)CCCn3c(C(F)(F)F)nc4cc(C(F)(F)F)ccc43)n2)cc1,0.06,-0.86
COc1ccc(-c2c(NC(=O)c3ccco3)oc3ccc(Cl)cc3c2=O)cc1,0.8,0.64
CN1CCN(C(=O)c2cc(Cl)cc(Cl)c2)CC1,0.04,-1.2
CSc1ncccc1C(=O)OCC(=O)N(C)C,0.9,-0.21
CC(C)CCOP(=O)(c1ccc(N(C)C)cc1)C(O)c1ccccn1 (stereo unspecified),0.32,-0.02
NS(=O)(=O)c1cccc(NC(=O)CSc2nc3nc(-c4cccs4)cc(C(F)(F)F)c3c(=O)[nH]2)c1,1,-1.4
CN(Cc1ccccc1)C(=O)C1CCN(S(=O)(=O)c2cccc3nonc23)CC1,3,0.83
O=C(COc1ccccc1)NCc1ccccc1,0.27,-0.93
Cc1cc(=O)[nH]c2c1c(C)nn2C1CCCC1,0.01,0.29

Ordered by the number under KCNQ2 pot (largest number first): three from the list above
SMILES,KCNQ2 pot,KCNQ2 pot baseline
O=C(O)c1ccccc1NC(=O)c1cc(-c2ccccc2)nc2ccccc12,3.4,-0.49
COc1ccc(CC(=O)N/N=C(\C)CC(=O)Nc2cccc(F)c2)cc1,2,1.2
CN1CCN(C(=O)c2cc(Cl)cc(Cl)c2)CC1,0.04,-1.2

Carrying on.
SMILES,KCNQ2 pot,KCNQ2 pot baseline
COC(=O)c1ccc(OCCCCN(C)Cc2ccccc2)cc1,0.53,-0.21
COc1ccc(C)cc1NC(=O)C1CCN(C(=O)Cc2ccccc2)CC1,0.06,1.8
Cn1cnnc1SCc1ccc(F)c2ccccc12,0.45,-0.53
COC(=O)[C@H]1C[C@@H]1[C@H](NC(=O)c1cc(C)on1)c1ccccc1,0.53,0.46
CC(=O)NC1C(=O)N=C(SCC(=O)Nc2sc3c(c2C#N)CCCCCC3)NC1=O (stereo unspecified),0.36,0.84
CC(C)=C(NC(=O)c1ccccc1)C(=O)N/N=C(\C)c1ccccc1O,0.22,-1.1
Cc1cc(=O)oc2cc3oc(=O)cc(C)c3cc12,1.1,-1
CN1CCC(OC(=O)c2ccc(Br)cc2)CC1,0.43,-1.1
COc1ccc(C(=O)n2c(N)nc3ccccc32)cc1OC,0.03,-0.37
O=C(CSc1nnnn1-c1cccc(O)c1)NC1CC1,0.38,-0.7
Cc1ccc(C(=O)c2ccccc2C(=O)O)s1,0.29,0.46
CN(CCc1cn[nH]c1)Cc1nc(Cc2ccccc2)no1,1.1,0.17
Cc1ccc(COC(=O)Cc2coc3cc(O)ccc23)cc1,1.4,1.1
Cc1cc(Sc2ccc([N+](=O)[O-])cn2)ccc1Br,0.52,0.2
Cc1ccc(/C=C/c2onc(C)c2S(=O)(=O)N2CCC(C(=O)N3CCCCC3)CC2)cc1,0.15,0.37

The list continues.
SMILES,KCNQ2 pot,KCNQ2 pot baseline
CS(=O)(=O)c1ccc(C(=O)Nc2ccc(N3CCCC3)cc2)c(Cl)c1,0.29,1.7
COc1cc(CO)ccc1OCC(=O)N1CCc2ccccc21,0.88,-0.13
COc1ccc(OCC(=O)Nc2ccc3c(c2)nc(CCN2CCCCC2)n3C)cc1,1.2,-0.24
O=C(CSc1ccc(F)cc1)Nc1ccc(N2CCOCC2)c(Cl)c1,1.9,-0.14
Cc1ccc2c(c1)C(CCN)C(=O)N2Cc1ccccc1 (stereo unspecified),0.1,1.2
O=C(CCS(=O)(=O)c1ccc2c(c1)NC(=O)CS2)NCc1cccs1,1.9,0.77
Cc1nc2ccc(NC(=O)c3cccs3)cc2c(=O)n1Cc1ccc(Cl)cc1,1.4,-1.5
CCc1noc(C)c1C(=O)N(Cc1ccccc1)c1c(N)n(CCOC)c(=O)[nH]c1=O,0.98,-1
CCOC(=O)Cn1c(=NC(=O)C2COc3ccccc3O2)sc2cc(S(N)(=O)=O)ccc21 (stereo unspecified),0.05,-0.54
CN(C(=O)COC(=O)c1cc(F)c(F)cc1Cl)c1ccccc1,0.99,0.04
O=C(Nc1cccc(F)c1)c1ccc(S(=O)(=O)NCC2CCCO2)cc1 (stereo unspecified),0.52,-0.25
O=C(NNC(=O)c1ccccc1C(=O)O)c1ccc(O)cc1,0.1,-0.26
COc1ccc(CC(=O)NCc2nnc(SCC(=O)Nc3nccs3)n2-c2ccccc2)cc1,0.03,1
CCc1cc(=O)[nH]c(SCC(=O)Nc2ccc3c(c2)OCCO3)n1,0.72,-0.25
COc1ccc(Br)cc1/C=N/n1c(C)nnc1C,1.4,-0.01

An excerpt of these results, with two lines to a compound:
Each structure is followed by: KCNQ2 pot, KCNQ2 pot baseline
- CN1CCC(OC(=O)c2ccc(Br)cc2)CC1
    0.43, -1.1
- COc1ccc(C(=O)n2c(N)nc3ccccc32)cc1OC
    0.03, -0.37
- O=C(CSc1nnnn1-c1cccc(O)c1)NC1CC1
    0.38, -0.7
- Cc1ccc(C(=O)c2ccccc2C(=O)O)s1
    0.29, 0.46
- CN(CCc1cn[nH]c1)Cc1nc(Cc2ccccc2)no1
    1.1, 0.17
- Cc1ccc(COC(=O)Cc2coc3cc(O)ccc23)cc1
    1.4, 1.1
- Cc1cc(Sc2ccc([N+](=O)[O-])cn2)ccc1Br
    0.52, 0.2
- Cc1ccc(/C=C/c2onc(C)c2S(=O)(=O)N2CCC(C(=O)N3CCCCC3)CC2)cc1
    0.15, 0.37
- CS(=O)(=O)c1ccc(C(=O)Nc2ccc(N3CCCC3)cc2)c(Cl)c1
    0.29, 1.7
- COc1cc(CO)ccc1OCC(=O)N1CCc2ccccc21
    0.88, -0.13
- COc1ccc(OCC(=O)Nc2ccc3c(c2)nc(CCN2CCCCC2)n3C)cc1
    1.2, -0.24
- O=C(CSc1ccc(F)cc1)Nc1ccc(N2CCOCC2)c(Cl)c1
    1.9, -0.14
- Cc1ccc2c(c1)C(CCN)C(=O)N2Cc1ccccc1 (stereo unspecified)
    0.1, 1.2
- O=C(CCS(=O)(=O)c1ccc2c(c1)NC(=O)CS2)NCc1cccs1
    1.9, 0.77
- Cc1nc2ccc(NC(=O)c3cccs3)cc2c(=O)n1Cc1ccc(Cl)cc1
    1.4, -1.5
- CCc1noc(C)c1C(=O)N(Cc1ccccc1)c1c(N)n(CCOC)c(=O)[nH]c1=O
    0.98, -1
- CCOC(=O)Cn1c(=NC(=O)C2COc3ccccc3O2)sc2cc(S(N)(=O)=O)ccc21 (stereo unspecified)
    0.05, -0.54
- CN(C(=O)COC(=O)c1cc(F)c(F)cc1Cl)c1ccccc1
    0.99, 0.04
- O=C(Nc1cccc(F)c1)c1ccc(S(=O)(=O)NCC2CCCO2)cc1 (stereo unspecified)
    0.52, -0.25
- O=C(NNC(=O)c1ccccc1C(=O)O)c1ccc(O)cc1
    0.1, -0.26

(further entries)
SMILES,KCNQ2 pot,KCNQ2 pot baseline
COC(=O)[C@@H](NC(=O)Nc1ccc(OC(F)(F)F)cc1)C(C)C,0.2,0.12
O=C(CSc1nnc(C2COc3ccccc3O2)o1)N1CCCC1 (stereo unspecified),0.85,-1.6
COc1ccc(C(=O)N=C2SC3CS(=O)(=O)CC3N2c2ccccc2)cc1OC (stereo unspecified),0.37,0.67
O=c1c2c3c(sc2ncn1/N=C/c1cccnc1)CCCC3,1.1,0.94
COc1ccc(OCC(O)CNS(=O)(=O)c2cccc(Cl)c2)cc1 (stereo unspecified),0.32,0.82
COc1ccc(CC(CC(=O)O)C(=O)Nc2ccc(Cl)c(Cl)c2)cc1 (stereo unspecified),0.8,0.45
FC(F)(F)c1nnc2ccc(NCc3ccccc3)nn12,0.11,0.99
COC(=O)Cc1c(C)c2c(OCc3nn[nH]n3)cc(C)cc2oc1=O,1.8,0
